Screening data (PubChem)
Vaccinia stage: blocks a specific stage of Vaccinia orthopoxvirus infection; AID 1053133; 0.01% of 89,000 active; activity change (mCherry), % (no concentration beside the values); Vaccinia-infected cells, mCherry/Venus stage reporter fluorescence; stronger effect = lower value; some inactives read as strong as hits;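 active means mCherry past -33% and 40 or more points under the early reporter, replicates agreeing; inconclusive means past -33% without that gap or agreement; tested in A549 cells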;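 further: scaled between vehicle wells and reference inhibitor wells; 23 nL library stock went into each well; one replicate is shown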
Vaccinia stage Venus: also measured in Vaccinia stage; calls as there; activity change (Venus), %; measured here: Venus reporter, other viral stage;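 negative = less Venus signal; first of two replicates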
* = called active by the depositor; ? = inconclusive; / = not tested or not shown. This is a subset, so the mix of outcomes need not match the whole.

Start of the data: the first 14 entries (preview)
SMILES	Vaccinia stage	Vaccinia stage Venus
C[C@@H]1CCCCO[C@@H](CN(C)C)[C@H](C)CN([C@@H](C)CO)C(=O)c2cc(N(C)C)ccc2O1	5	-5
CC(C)NC(=O)N[C@H]1CC[C@H](CCNC(=O)C2CCC2)O[C@H]1CO	-1	-4
C[C@@H]1CN([C@H](C)CO)C(=O)c2cccc(NC(=O)C3CC3)c2O[C@@H]1CN(C)Cc1ccc(-c2ccccc2)cc1	-18	-4
C[C@H](CO)N1C[C@H](C)[C@@H](CN(C)CC2CCOCC2)Oc2ncc(-c3ccc(C#N)cc3)cc2C1=O	13	1
O=C(NCCc1ccncc1)[C@@H]1[C@@H](CO)[C@@H]2Cn3c(cccc3=O)[C@H]1N2Cc1ccccc1F	9	12
COc1cccc(NC(=O)N[C@@H]2CC[C@H](CC(=O)NCc3ccccn3)O[C@@H]2CO)c1	20	7
CCS(=O)(=O)N1CCCCN2[C@H](CO)[C@@H](c3ccc(C#CC(C)(C)O)cc3)[C@H]2C1	9	1
O=C(C[C@@H]1C[C@H]2c3cc(NC(=O)C4CCC4)ccc3O[C@H]2[C@H](CO)O1)NCc1ccccc1F	-8	1
O=c1n(-c2ccccc2)c(=O)n2n1CC(COc1ccccc1)=C([C@H](O)c1ccccc1)[C@@H]2CO	-18	-13
CC(=O)N1CCCCN2[C@H](CO)[C@@H](c3ccc(C#Cc4ccccc4F)cc3)[C@H]2C1	?	/
O=C(C[C@H]1CC[C@@H](NC(=O)Nc2ccc3c(c2)OCO3)[C@H](CO)O1)NCCCN1CCOCC1	9	9
Cc1ccc(S(=O)(=O)N(C)C[C@@H]2OCc3ccccc3-c3c(n(C)c4ccccc34)C(=O)N([C@@H](C)CO)C[C@@H]2C)cc1	?	/
COc1ccc(C#Cc2ccc3c(c2)O[C@@H](CN(C)C(=O)NC2CCCCC2)[C@@H](C)CN([C@H](C)CO)S3(=O)=O)cc1	-22	-12
C[C@H]1CN([C@@H](C)CO)C(=O)c2cc(NC(=O)Nc3ccc(F)cc3)ccc2O[C@@H]1CN(C)S(=O)(=O)c1ccc(F)cc1	-1	7

Results (from the top)
SMILES	Vaccinia stage	Vaccinia stage Venus
C[C@@H]1CCCCO[C@@H](CN(C)C)[C@H](C)CN([C@@H](C)CO)C(=O)c2cc(N(C)C)ccc2O1	5	-5
CC(C)NC(=O)N[C@H]1CC[C@H](CCNC(=O)C2CCC2)O[C@H]1CO	-1	-4
C[C@@H]1CN([C@H](C)CO)C(=O)c2cccc(NC(=O)C3CC3)c2O[C@@H]1CN(C)Cc1ccc(-c2ccccc2)cc1	-18	-4
C[C@H](CO)N1C[C@H](C)[C@@H](CN(C)CC2CCOCC2)Oc2ncc(-c3ccc(C#N)cc3)cc2C1=O	13	1
O=C(NCCc1ccncc1)[C@@H]1[C@@H](CO)[C@@H]2Cn3c(cccc3=O)[C@H]1N2Cc1ccccc1F	9	12
COc1cccc(NC(=O)N[C@@H]2CC[C@H](CC(=O)NCc3ccccn3)O[C@@H]2CO)c1	20	7
CCS(=O)(=O)N1CCCCN2[C@H](CO)[C@@H](c3ccc(C#CC(C)(C)O)cc3)[C@H]2C1	9	1
O=C(C[C@@H]1C[C@H]2c3cc(NC(=O)C4CCC4)ccc3O[C@H]2[C@H](CO)O1)NCc1ccccc1F	-8	1
O=c1n(-c2ccccc2)c(=O)n2n1CC(COc1ccccc1)=C([C@H](O)c1ccccc1)[C@@H]2CO	-18	-13
CC(=O)N1CCCCN2[C@H](CO)[C@@H](c3ccc(C#Cc4ccccc4F)cc3)[C@H]2C1	?	/
O=C(C[C@H]1CC[C@@H](NC(=O)Nc2ccc3c(c2)OCO3)[C@H](CO)O1)NCCCN1CCOCC1	9	9
Cc1ccc(S(=O)(=O)N(C)C[C@@H]2OCc3ccccc3-c3c(n(C)c4ccccc34)C(=O)N([C@@H](C)CO)C[C@@H]2C)cc1	?	/
COc1ccc(C#Cc2ccc3c(c2)O[C@@H](CN(C)C(=O)NC2CCCCC2)[C@@H](C)CN([C@H](C)CO)S3(=O)=O)cc1	-22	-12
C[C@H]1CN([C@@H](C)CO)C(=O)c2cc(NC(=O)Nc3ccc(F)cc3)ccc2O[C@@H]1CN(C)S(=O)(=O)c1ccc(F)cc1	-1	7
O=C(C[C@H]1CC[C@@H](NS(=O)(=O)c2ccc(F)cc2)[C@H](CO)O1)NCCc1ccncc1	13	12
C[C@H](O)C#Cc1cnc2c(c1)C(=O)N([C@@H](C)CO)C[C@@H](C)[C@@H](CN(C)C(=O)c1ccncc1)O2	18	7
O=C(Nc1ccccc1F)N1C[C@H]2[C@@H](c3ccccc31)[C@@H](CO)N2C(=O)Cc1ccccc1	7	9
COc1ccccc1-c1ccc2c(c1)O[C@@H](CN(C)S(=O)(=O)c1ccc(C)cc1)[C@@H](C)CN([C@H](C)CO)S2(=O)=O	-17	-14
COc1ccccc1S(=O)(=O)N(C)C[C@@H]1Oc2cc(C#CCC(C)C)ccc2S(=O)(=O)N([C@H](C)CO)C[C@H]1C	2	-10
COCC(=O)N1CC2(C1)CN(Cc1ccccc1Cl)[C@@H](CO)c1c2c2ccc(OC)cc2n1C	8	9
CCC(=O)N1CC2(C1)CN(C(=O)Nc1ccccc1F)[C@H](CO)c1[nH]c3cc(OC)ccc3c12	3	2
C[C@@H]1CN([C@H](C)CO)C(=O)c2cc(C#CC3(O)CCCC3)cnc2O[C@@H]1CN(C)C(=O)CN(C)C	21	6
CO[C@@H]1CN(C)C(=O)c2cc(NC(C)=O)ccc2OC[C@H](C)N(Cc2ccccc2F)C[C@H]1C	8	8
C[C@H]1CN([C@@H](C)CO)C(=O)c2cccc(NC(=O)Nc3ccccc3)c2O[C@H]1CN(C)S(=O)(=O)c1ccc(F)cc1	-10	-8
CC=Cc1ccc2n(c1=O)C[C@@H]1[C@@H](CO)[C@H](C(=O)NCC3CC3)N(Cc3ccncc3)[C@H]21 (mixture of isomers)	13	14
(more compounds)
SMILES	Vaccinia stage	Vaccinia stage Venus
NC(N)=NCCCC(N)C(=O)CC(Cc1ccccc1)C(=O)O (centres undefined)	13	9
CCCN1[C@@H]2c3ccc(-c4ccncc4)c(=O)n3C[C@H]1[C@H](CO)[C@H]2C(=O)NCCc1cn(C)cn1	16	7
C[C@@H]1CN([C@@H](C)CO)C(=O)c2cccc(NC(=O)C3CC3)c2O[C@H]1CN(C)S(=O)(=O)c1ccc(Cl)cc1	-4	8
O=C(Cc1ccccc1)N1CC(=O)N2[C@H](CO)[C@@H](c3ccc(C#Cc4ccccc4)cc3)[C@H]2C1	?	/
C[C@H](CO)N1C[C@H](C)[C@H](CN(C)C(=O)Cc2ccccc2)OCCCC[C@H](C)Oc2ccc(NC(=O)Nc3ccc4c(c3)OCO4)cc2C1=O	-3	-6
O=C(c1cccnc1)N1CC(=O)N2[C@H](CO)[C@@H](c3ccc(-c4cccnc4)cc3)[C@H]2C1	12	4
CN(C)C(=O)c1cccc(-c2ccc3c(c2)[C@H]2[C@H](CCN2C(=O)c2ccccc2F)[C@H](CO)N3)c1	?	/
N#C[C@@H]1[C@@H](c2ccc(C3=CCCCC3)cc2)[C@H](CO)N1C(=O)c1cccc(F)c1	-13	-8
C/C=C/c1ccc([C@@H]2[C@@H](CO)N(C(=O)NC(C)C)[C@H]2CN(C)C(=O)CC)cc1	0	5
C[C@H](CO)N1C[C@H](C)[C@H](CN(C)Cc2ccccn2)Oc2cc(C#CC3CC3)ccc2S1(=O)=O	-11	-4
COCCNC(=O)C[C@H]1CC[C@H](NS(=O)(=O)c2ccc(C)cc2)[C@H](CO)O1	9	5
C[C@@H]1CN([C@H](C)CO)C(=O)c2cc(NC(=O)Cc3cn(C)c4ccccc34)ccc2O[C@H]1CN(C)C(=O)Nc1ccc(C(F)(F)F)cc1	-4	12
C[C@@H]1CN([C@H](C)CO)C(=O)c2cc(N(C)C)ccc2O[C@@H]1CN(C)Cc1ccccc1	4	5
CCCN1C[C@H](C)[C@H](OC)CN(C)C(=O)c2cc(NC(=O)c3ccc(F)cc3)ccc2OC[C@@H]1C	-5	8
O=C(NC1CCCC1)N1CCCCN2[C@H](C1)[C@@H](c1ccc(-c3cccnc3)cc1)[C@@H]2CO	8	8
C[C@H](CO)N1C[C@H](C)[C@H](CN(C)S(=O)(=O)c2cn(C)cn2)Oc2ccc(NS(=O)(=O)c3cn(C)cn3)cc2CC1=O	11	13
CN(C)C(=O)C[C@H]1CC[C@@H](NC(=O)Nc2cccc(F)c2)[C@H](CO)O1	-1	2
Cc1ccc(S(=O)(=O)Nc2ccc3c(c2)C(=O)N([C@H](C)CO)C[C@@H](C)[C@H](CN(C)C(=O)Nc2ccc(F)cc2)OCCCC[C@H](C)O3)cc1	?	/
CCNC(=O)[C@H]1[C@H](CO)[C@H]2Cn3c(ccc(-c4cccc(F)c4)c3=O)[C@@H]1N2C(=O)c1ccccn1	11	2
C[C@H]1CN([C@@H](C)CO)C(=O)c2cccc(NC(=O)c3ccc(-c4nccs4)cc3)c2O[C@@H]1CN(C)Cc1ccc2c(c1)OCO2	-25	-23
C[C@@H]1CCCCO[C@H](CN(C)C)[C@@H](C)CN([C@H](C)CO)C(=O)c2cc(N(C)C)ccc2O1	3	0
COc1cccc(S(=O)(=O)N(C)C[C@@H]2OCc3cn(nn3)CCCC(=O)N([C@H](C)CO)C[C@H]2C)c1	8	3
C[C@@H]1CN([C@@H](C)CO)C(=O)c2cc(NS(=O)(=O)c3ccc(F)cc3)ccc2O[C@@H]1CN(C)CC1CC1	-5	-13
CCC(=O)N1CC(=O)N2[C@H](CO)[C@@H](c3ccc(C#CC4CCCC4)cc3)[C@@H]2C1	-21	-22
COC(=O)C[C@H]1C[C@@H]2c3cc(NS(=O)(=O)c4cccc(OC)c4)ccc3O[C@@H]2[C@H](CO)O1	9	3
(more compounds)
SMILES	Vaccinia stage	Vaccinia stage Venus
CCCC(=O)Nc1ccc2c(c1)C(=O)N(C)[C@H]1CC[C@@H](CC(=O)NCc3ccccc3)O[C@H]1CO2	-1	2
CN(C)CC(=O)Nc1ccc2c(c1)[C@@H]1C[C@@H](CC(=O)NCCc3ccccc3)O[C@H](CO)[C@@H]1O2	12	11
C[C@H]1CN([C@@H](C)CO)C(=O)c2cccc(NS(=O)(=O)c3cn(C)cn3)c2O[C@H]1CN(C)S(C)(=O)=O	2	6
CCC(=O)N(C)C[C@@H]1Oc2ncc(C#C[C@H](C)O)cc2C(=O)N([C@@H](C)CO)C[C@@H]1C	14	15
COc1ccc(NC(=O)N(C)C[C@H]2Oc3c(NS(=O)(=O)c4ccc(OC)cc4)cccc3C(=O)N([C@H](C)CO)C[C@H]2C)cc1	6	14
COc1cccc(NC(=O)N2CC(=O)N3[C@H](CO)[C@H](c4ccc(Br)cc4)[C@H]3C2)c1	13	0
C[C@H](CO)N1C[C@H](C)[C@H](CN(C)Cc2ccc(C(F)(F)F)cc2)Oc2ccc(NC(=O)Nc3ccc(C(F)(F)F)cc3)cc2C1=O	?	/
Cc1noc(C)c1NC(=O)Nc1ccc2c(c1)C(=O)N([C@H](C)CO)C[C@H](C)[C@H](CN(C)S(=O)(=O)c1ccc(Cl)cc1)OCCCC[C@@H](C)O2	28	11
C[C@H]1CN([C@@H](C)CO)C(=O)CCCn2cc(nn2)CO[C@H]1CN(C)S(=O)(=O)c1cccc(F)c1	7	3
C[C@@H]1CN([C@H](C)CO)C(=O)c2cc(NC(=O)CCCCCC(=O)Nc3ccccc3N)ccc2O[C@H]1CN(C)C(=O)Nc1ccc(F)cc1	20	7
CCNC(=O)[C@H]1[C@H](CO)[C@H]2Cn3c(ccc(/C=C/c4ccccc4)c3=O)[C@@H]1N2C(C)=O	1	-4
C[C@H]1CN([C@@H](C)CO)C(=O)c2cc(NC(=O)Nc3ccccc3)ccc2O[C@H]1CN(C)C(=O)Nc1ccc(C(F)(F)F)cc1	5	8
C[C@@H]1CN([C@@H](C)CO)C(=O)c2cc(NC(=O)Nc3ccccc3)ccc2O[C@@H](C)CCCCO[C@@H]1CN(C)C(=O)CCCN(C)C	11	-3
COc1ccccc1NC(=O)N1CCCCN2[C@H](C1)[C@H](c1ccc(C#CC3CC3)cc1)[C@@H]2CO	?	/
C[C@@H]1CN([C@H](C)CO)C(=O)c2cc(NC(=O)Cn3cnnn3)ccc2O[C@@H]1CN(C)C(=O)Nc1ccc2c(c1)OCO2	35	2
Cc1ccc(S(=O)(=O)NCC[C@H]2CC[C@@H](NC(=O)Nc3cccc(F)c3)[C@@H](CO)O2)cc1	-27	-25
O=C(CN1CCOCC1)N1CCCCN2[C@H](CO)[C@@H](c3ccc(C#Cc4ccccc4)cc3)[C@H]2C1	?	/
C[C@@H]1CCCCO[C@H](CN(C)S(=O)(=O)c2ccc(F)cc2)[C@@H](C)CN([C@@H](C)CO)C(=O)c2cc(NC(=O)c3ccncc3)ccc2O1	4	-2
CO[C@@H]1CN(C)C(=O)c2ccc(NC(=O)c3nc4ccccc4s3)cc2OC[C@H](C)N(Cc2cncnc2)C[C@@H]1C	0	7
C[C@@H]1CN([C@H](C)CO)C(=O)c2cc(N(C)C)ccc2O[C@@H](C)CCCCO[C@@H]1CN(C)S(=O)(=O)c1ccccc1	-7	6
CCCNC(=O)N(C)C[C@H]1Oc2ncc(C#C[C@H](C)O)cc2C(=O)N([C@H](C)CO)C[C@H]1C	11	6
O=C(c1ccncc1)N1CC(=O)N2[C@@H](CO)[C@H](c3ccc(-c4cccnc4)cc3)[C@@H]2C1	19	12
C[C@@H]1CN([C@@H](C)CO)C(=O)c2ccccc2-c2ccccc2CO[C@H]1CN(C)S(=O)(=O)c1ccc([N+](=O)[O-])cc1	?	/
O=C(C[C@H]1CC[C@@H]2[C@H](COC[C@H](O)CN2C(=O)Nc2ccc(Cl)c(Cl)c2)O1)NCc1ccc(Cl)cc1	?	/
CC(C)C#Cc1ccc2c(c1)O[C@@H](CN(C)Cc1cccnc1)[C@@H](C)CN([C@H](C)CO)S2(=O)=O	-12	-12
O=C(N[C@H]1CC[C@@H](CCn2cc(-c3ccccn3)nn2)O[C@H]1CO)c1ccccc1	-4	6
